Assay outcomes as filed in PubChem.
PINK1 expr mod: modulators of PINK1 expression. PINK1 immunofluorescence, high-content cytometry, 24 h. Potency, µM (top dose mostly 76.6 µM), inactives show at the highest dose activation (PINK1 increase), actives largely listed as activators. 0.2% of 410,000 active. AID 624263; active = well fitted activation curve with a large enough effect; inconclusive = small, poorly fitted or top-dose-only effect; inactive = flat fitted curve, though single readings scatter; cell line not stated here;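 further: potency means the concentration at half of the fitted maximal effect; % of control where 0% means no effect; nearly all actives have a fitted effect of over 65% in size; a mitochondrial uncoupler was the plate control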
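PINK1 protein level read as immunofluorescence by microplate cytometer in a fixed, stained stable cell line after 24 h exposure to five compound concentrations, with CCCP as control.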
ClpP mod: qHTS Assay for Activators of ClpP. Potency, µM (titrated, usually from 57.5 µM), for inactives: top-dose activity change, negative = active. AID 651965, 2013. ATP-dependent Clp protease proteolytic subunit (Bacillus subtilis (strain 168)), P80244. 1.9% of 340,000 active. purified B. subtilis ClpP, FRET peptide cleavage, 20 min; active = well fitted falling curve with a large enough effect; inconclusive = small, poorly fitted or top-dose-only effect; inactive = no such curve, though single readings can be large or run the other way; further: potency means the concentration at half of the fitted maximal effect; the source files actives as falling curves though it sought activators and does not explain the sign; nearly all actives have a fitted effect of over 65% in size; many hits overshoot -100%
Target sequence (P80244 whole entry, looked up): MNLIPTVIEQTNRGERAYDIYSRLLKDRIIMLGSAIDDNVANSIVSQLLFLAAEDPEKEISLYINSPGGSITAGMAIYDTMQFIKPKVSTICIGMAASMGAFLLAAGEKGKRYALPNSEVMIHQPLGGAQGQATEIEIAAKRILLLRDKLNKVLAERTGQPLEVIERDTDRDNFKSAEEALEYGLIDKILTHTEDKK
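Purified B. subtilis ClpP, 10 microg/mL final in Tris/HCl pH8 with KCl, BSA, glycerol and Tween-20, cleaved an Abz/nitrotyrosine-quenched decapeptide. Fluorescence (ex 320, em 430) was read at 0 and 20 min at room temperature. Delta was normalized to 5.8 microM ADEP and DMSO/no-enzyme controls.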
Menin-MLL FL inh: inhibitors of human menin-MLL interaction, wild-type MLL peptide; Fluorescence polarization, fluorescein-MLL peptide displacement from menin; FP activity change, % at 61.4 µM; 290,000 tested, under 10 active; AID 1766; inconclusive = falling polarisation curve, or a change in total fluorescence; inactive = total fluorescence flat and polarisation flat or rising; no compound was filed as active; the % refers to the polarisation; negative = inhibition;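 further: % of control where 0% means no effect; inhibitors lower the polarisation; unlabelled MLL peptide was the positive control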
TRPV1 PAM: enhances activation of the human vanilloid receptor TRPV1. Q8NER1. TRPV1-expressing cells, Fluo-8 calcium influx, capsaicin EC20 potentiation; host cell line not named in the record; control for the full effect not named in the record. potentiation, % at 8.33 µM. 0.02% of 320,000 active. AID 540277; active means potentiation above 80%; inconclusive means 30% to 80%; inactive means below 30%; further: 0% is about no effect
Target sequence (Q8NER1 whole entry, looked up): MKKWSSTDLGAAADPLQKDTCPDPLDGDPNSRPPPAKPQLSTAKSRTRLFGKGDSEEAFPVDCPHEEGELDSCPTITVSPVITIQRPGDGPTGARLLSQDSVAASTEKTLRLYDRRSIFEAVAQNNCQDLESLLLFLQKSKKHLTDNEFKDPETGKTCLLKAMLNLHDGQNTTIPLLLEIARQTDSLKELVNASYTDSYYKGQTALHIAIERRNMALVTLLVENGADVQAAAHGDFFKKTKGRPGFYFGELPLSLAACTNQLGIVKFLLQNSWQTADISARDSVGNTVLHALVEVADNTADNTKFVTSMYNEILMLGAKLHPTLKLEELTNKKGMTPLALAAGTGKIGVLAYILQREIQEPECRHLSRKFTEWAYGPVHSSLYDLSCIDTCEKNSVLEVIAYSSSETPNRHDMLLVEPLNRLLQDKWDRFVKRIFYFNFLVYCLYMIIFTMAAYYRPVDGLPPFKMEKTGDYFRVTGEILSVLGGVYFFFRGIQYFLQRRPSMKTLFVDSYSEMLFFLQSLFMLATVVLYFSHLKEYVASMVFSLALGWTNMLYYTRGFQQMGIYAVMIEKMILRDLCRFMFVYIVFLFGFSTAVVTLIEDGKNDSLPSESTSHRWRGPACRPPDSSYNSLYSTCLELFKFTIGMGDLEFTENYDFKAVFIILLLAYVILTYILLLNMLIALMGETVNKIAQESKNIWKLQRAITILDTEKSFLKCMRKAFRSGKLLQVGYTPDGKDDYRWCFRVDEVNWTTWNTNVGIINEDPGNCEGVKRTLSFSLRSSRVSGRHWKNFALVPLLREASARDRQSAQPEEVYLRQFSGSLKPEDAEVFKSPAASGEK
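Fluo-8 calcium influx in TRPV1-expressing cells, kinetic read (ex 480/em 520 nm). Compound added and read 3 min for agonist activity, followed by capsaicin at EC20 final and 2 min further read for enhancement.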
Sfp PPTase inh: inhibitors of Bacillus subtilis Sfp phosphopantetheinyl transferase; Q9F4F7; Biochemical Sfp PPTase activity, qHTS; Potency, µM, for inactives: max response, negative = inhibition, most hits filed as inhibitors; 3.5% of 310,000 active; active means well fitted inhibition curve with a large enough effect; inconclusive means small, poorly fitted or top-dose-only effect, or another doubt; inactive means no such curve, though single readings can be large or run the other way;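 further: the enzyme is Sfp with the accession as filed and its product quenches rhodamine fluorescence; potency means the concentration at half of the fitted maximal effect; 0% = enzyme reaction without inhibitor and -100% = no enzyme wells; top concentration of the series not given in the record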
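Compounds were incubated with enzyme (final 15 nM) for 15 min at room temperature before substrate addition started the reaction. Fluorescence at 525 nm excitation, 598 nm emission was recorded immediately and after 30 minutes.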
TRPML1 blocker: human mucolipin-1 channel inhibition; AID 624415; TRPML1-inducible cells, Ca2+ dye fluorescence, FDSS; hits give low values; inhibition of EC80 agonist-evoked calcium signal; activity change, negative = inhibition, % (concentration not given with the values); 0.02% of 390,000 active; in the data active means activity change below about -50%; inconclusive means about -30% to -50%; inactive means above about -30%;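 further: stimulus is agonist 54-4 at its EC80 concentration; on the % scale 0 is the no-effect control and ±100 the full control effect; compound concentration not given in the record; the text of the record puts the active cut at -80%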
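Calcium fluorescence in TRPML1-DL cells induced overnight with Tet: a 110 s read after compound pin addition, then a 110 s antagonist read after challenge with 54-4 at 4 uM final (EC80).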
TRPML1 agonist: agonists of human TRPML1 channel | TRPML1-expressing cells, Ca2+ dye fluorescence, FDSS; host cell line not named in the record; reference of the full effect not given here | activation, % (no concentration beside the values) | 0.12% of 410,000 active | AID 624414; in the data active = activation above about 50%; inconclusive = about 30% to 50%; inactive = below about 30%; further: 0% is about no effect; the text of the record puts the active cut at 80%
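Calcium fluorescence on an FDSS kinetic reader gave the read-out. Tet-induced TRPML1-DL cells were plated overnight, dye-loaded (Ca8 with quencher, 45-90 min, room temperature, dark), then read 110 s after compound addition, and again 110 s after 4uM final 54-4 (EC80).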
Starred values were filed as active, the others as inactive; ? = inconclusive; nt = not tested or not shown; & = joins results of further samples; [ ] = dose if it differs, or a comment.

SMILES	PINK1 expr mod	ClpP mod	Menin-MLL FL inh	TRPV1 PAM	Sfp PPTase inh	TRPML1 blocker	TRPML1 agonist
Cc1ccc(N2C(=O)c3ccccc3C2=O)cc1C	-1.8%	-0.9%	2.9	-19	-11%	-2	1.3
COc1ccc(-c2nc3ccccc3o2)cc1NC(=O)COc1ccc(C)c(C)c1	8.9%	?	nt	nt	nt	-6	2.0
Cc1cc(C)n(C(=O)c2c([N+](=O)[O-])cnn2C)n1	15%[38.3 µM]	0.8%	2.3	5	17%	-10	-0.3
CN(c1ccccc1)S(=O)(=O)c1cccc(C(=O)OCC(=O)NCc2ccco2)c1	0.2%	nt	-1.0	-29	-12%	0	-0.9
CCOC(=O)c1oc2ccc(CNCCO)c(Cl)c2c1C	-0.7%	-3.3%	-1.1	5	9%	14	0.3
CC1(C)Cc2c(cnn2-c2ccc(F)cc2)C(NC(=O)CN2CCCCC2=O)C1 (centres undefined)	0.7%	1.3%	nt	13	6%	1	-0.1
CCn1c(SCC(=O)N2CCc3ccccc3C2)nc2c1c(=O)n(C)c(=O)n2C	-3.0%[38.3 µM]	-0.6%	0.2	-3	-5%	-3	0.1
CCOc1ccc(CCNC(=O)CN2C(=O)COc3ccc(S(=O)(=O)N4CCOCC4)cc32)cc1	0.6%	0.5%	nt	-3	17%	10	-0.7
C[C@H](NC(=O)c1ccc(Cl)cc1)C(=O)NCCc1ccc(S(N)(=O)=O)cc1	-0.6%	nt	-0.5	7	27%	-2	0.2
CCOc1ccc(NC(=S)NC(C)c2cccs2)cc1 (centres undefined)	-0.2%	1.3%	7.0	17	-11%	11	1.4
O=C(Cn1ccc2ccccc2c1=O)NCCC(=O)Nc1ccc(F)cc1F	0.5%&1.7%	-15%	-2.2	-10	9%	2&12	-0.1&-1.0
COC(=O)c1cccc(NC(=O)C(C)N2C(=O)c3ccccc3C2=O)c1 (centres undefined)	nt	1.7%	-2.0	-12	1%	-6	0.3
COc1ccc(O)c(-c2[nH]ncc2C(=O)c2ccccc2)c1	23%	-0.4%	11	-18	18%	-1	1.7
CCc1ccc(NC(=O)c2cc(C)on2)cc1	-0.1%[38.3 µM]	-2.5%	0.4	-22	17%	-3	0.2
CCc1cccc(OC2OC(CO)C(O)C(O)C2NC(C)=O)c1 (centres undefined)	2.9%	nt	1.3	8	15%	-11	-1.2
COc1cccc(OCC(O)CN2CC(C)CC(C)C2)c1 (centres undefined)	1.2%	0.5%	3.5	?	6%	-3	0.0
CCN(CC(=O)Nc1c(F)cccc1F)C(=O)Cc1n[nH]c(=O)c2ccccc12	0.8%	2.5%	nt	10	nt	-17	0.6
O=C(CSc1ccc(F)cc1)NC12CC3CC(CC(C3)C1)C2	3.6%	-0.9%	0.5	-11	5%	19	-0.3
CCCCC(=O)N(CCOC)c1nnc(-c2ccccc2C)s1	7.4%	nt	0.0	-9	-6%	-4	0.9
Cc1ccc(S(=O)(=O)N2CCN(C(=O)CN3C(=O)NC4(CCCC4)C3=O)CC2)c(C)c1	-4.2%	nt	nt	8	nt	3	0.7
COc1ccc2[nH]c(C)c(CCNC(=S)Nc3cccc(C)c3)c2c1	1.1%	-3.7%	-0.4	-8	-9%	-15	-0.1
CS(=O)(=O)N1CCC(C(=O)Nc2ccc(Cl)cc2)CC1	-0.1%	1.3%	-11	-27	6%	7	-0.1
O=C(C[C@H]1C/C=C\CC[C@@H](Cc2ccc(F)cc2)C(=O)O[C@H](c2ccccc2)CNC1=O)N[C@H](CO)Cc1ccccc1	1.0%	1.3%	nt	nt	nt	24	-0.1
COc1ccccc1CNc1ncc(-c2ccccc2)n1C	3.4%	-22%	-5.7	-3	-19%	1	0.8
COc1cc(C(=O)NNC(=O)COc2cccc(F)c2)ccc1OCC(=O)N1CCOCC1	-0.2%	-2.6%	nt	?	nt	-10	0.1
COc1ccc2cc(CN(CC3CCCO3)S(=O)(=O)c3ccccc3)c(=O)[nH]c2c1 (centres undefined)	nt	-8.2%	0.4	6	12%	3	-0.2
COCCNc1ncnc2c1ncn2[C@H]1CN(Cc2ccc(F)cc2)C[C@@H](CO)O1	2.9%	-1.2%	nt	nt	nt	nt	-0.1
Cc1ccc(C(c2nnnn2CS(=O)(=O)c2ccc(C)cc2)N2CCC(C)CC2)cc1 (centres undefined)	5.3%	-1.1%	5.6	22	27%	23	0.9
CS(=O)(=O)N1CCC(C(=O)O)CC1	1.3%[38.3 µM]	-1.8%	-0.9	8	8%	-1	4.7
CC1Cc2ccccc2C(CCc2ccccc2)=N1 (centres undefined)	2.7%	-0.1%	0.7	-8	6%	21	1.2

Ordered by the number under PINK1 expr mod (high to low): 3 of the compounds above
smiles,PINK1 expr mod
CCc1cccc(OC2OC(CO)C(O)C(O)C2NC(C)=O)c1 (centres undefined),2.9%
COc1cccc(OCC(O)CN2CC(C)CC(C)C2)c1 (centres undefined),1.2%
Cc1ccc(S(=O)(=O)N2CCN(C(=O)CN3C(=O)NC4(CCCC4)C3=O)CC2)c(C)c1,-4.2%

The list goes on:
SMILES	PINK1 expr mod	ClpP mod	Menin-MLL FL inh	TRPV1 PAM	Sfp PPTase inh	TRPML1 blocker	TRPML1 agonist
Cc1cc(C)cc(OCC(=O)NCC2CCCO2)c1 (centres undefined)	-0.1%[38.3 µM]	-1.3%	5.2	-14	6%	-8	-0.4
CCn1nc(C)c(CNC(=O)c2ccc(OC3CCN(Cc4ccccn4)CC3)cc2)c1C	-1.0%	-1.7%	nt	-4	-1%	-4	-0.5
Cc1ccc(CSc2nc3ccccc3c(=O)n2CCCC(=O)NCc2ccco2)cc1	17%[38.3 µM]	-0.6%	-0.8	3	25µM*	43	0.3
CN(CCc1ccccn1)C(=O)CCC1CCCN(C(=O)c2ccccn2)C1 (centres undefined)	0.1%	nt	-2.1	1	17%	4	-0.7
CCCCn1c(N)c(N(CC(C)C)C(=O)c2cc3c(s2)CCCCC3)c(=O)[nH]c1=O	8.0%	nt	nt	-9	nt	2	0.3
O=C(Oc1ccccc1C(=O)Nc1ccccc1)c1ccccc1Br	2.3%	-2.1%	2.5	3	5%	-12	1.7
O=C(CSc1ccc(C(F)(F)F)cc1[N+](=O)[O-])Nc1ccccc1	14%[38.3 µM]	0.7%	-3.2	-10	-4%	7	0.8
O=C1N[C@@H](Cc2ccccc2)C(=O)N2[C@@H]1C[C@]1(Br)c3ccccc3N(S(=O)(=O)c3ccccc3)[C@H]21	0.2%	0.5%	nt	nt	nt	3	-0.5
CCCc1nc2sc3ccccc3c(=O)c2c(=O)n1CCOC	nt	nt	-1.1	8	22%	nt	nt
CCC1CCCCN1C(=O)CCc1nnc(Cc2cc(OC)ccc2OC)o1 (centres undefined)	2.2%	nt	-0.3	4	5%	25	1.0
COCCC(=O)N1CCC(Oc2ccc(C(=O)N3CCCC(COC)C3)cc2)CC1 (centres undefined)	-0.2%	0.3%	-2.1	0	19%	25	-0.2
CCO[C@H]1OC(C(=O)N2CCOCC2)=C[C@@H](c2cn(C(C)=O)c3ccccc23)[C@@H]1CCCO	0.5%	1.0%	-3.9	-8	-1%	3	-0.8
O=C(CSc1ccc2ccccc2n1)N/N=C/c1ccc(O)cc1	-1.3%	-0.8%	6.2	25	18%	28	0.3
O=C(COc1ccccc1[N+](=O)[O-])N1CCC(c2nc3ccccc3o2)CC1	0.3%	0.1%	nt	nt	nt	4	4.5
Cc1cc2cc(CN(CCCN3CCOCC3)C(=O)NC3CCCCC3)c(=O)[nH]c2cc1C	-2.2%[38.3 µM]	?	4.2	18	45µM*	25	-0.2
CCOc1ccc(-c2nn(CC(=O)NC3CCCC3)c3c2cnc2ccc(F)cc23)cc1	1.3%	-11%	nt	nt	nt	11	0.5
Cc1ccc(O)c(C2=NCCNC(C(F)(F)C(F)F)=C2)c1	0.0%	0.4%	2.9	-9	11%	-16	0.0
Cc1cc(C)n(-c2nc3c(c(=O)[nH]c(=O)n3C)n2CCc2ccccc2)n1	1.1%	-12%	6.7	-3	3%	12	0.1
Cc1ccc(N(C(C)C(=O)O)S(=O)(=O)c2c(C)[nH]c(=O)[nH]c2=O)cc1 (centres undefined)	-0.2%	0.2%	0.7	-8	0%	15	-0.3
COC(=O)c1sccc1S(=O)(=O)Nc1ccc(Cl)cc1	-0.2%	nt	0.8	-1	8%	13	1.1
CCCCc1ccc(C(=O)NC(C(=O)O)C(C)C)cc1 (centres undefined)	1.5%[38.3 µM]	0.6%	1.2	2	12%	-7	0.1
S=C(Nc1cccc2ccccc12)NC1CCCCC1	5.7%	nt	-4.0	-3	6%	33	-0.6
COCC(C)Nc1ccc(S(=O)(=O)N2CCCC2)cc1[N+](=O)[O-] (centres undefined)	1.2%	nt	-2.6	-11	0%	-18	-0.3
Cc1cccnc1C(NC(=O)C1CCN(Cc2cn(C)c3ccccc23)CC1)c1ccc(Cl)cc1 (centres undefined)	-0.5%	-0.9%	nt	nt	nt	nt	2.8
COC(=O)c1ccc(C(=O)OC)c(NC(=S)N2CCCCC2)c1	1.7%[38.3 µM]	-12%	1.9	-13	10%	-6	-0.4
O=C(CN1CCN(C2CCCCC2)CC1)Nc1ccccc1N1CCCCC1	nt	-0.4%	-4.8	-10	7%	5	-0.1
Cc1ccccc1NS(=O)(=O)c1ccc2[nH]cc(C(=O)NCCc3ccccc3)c(=O)c2c1	4.2%	-22%	nt	16	nt	-12	1.0
Cc1nn(-c2ccccc2)c(C)c1C(=O)OCC(N)=O	-1.5%	-0.2%	-1.8	-2	22%	4	2.9
Cc1ccc(-c2csc(NCCn3c(C)nc4cc(C(F)(F)F)ccc43)n2)cc1	2.9%	-1.8%	nt	nt	nt	8	-0.7
COc1cc(Cl)ccc1OC1(C)CCN(Cc2ccc(SC)cc2)C1 (centres undefined)	?	-5.1%	nt	nt	nt	-12	-0.4
CC(C)c1ccccc1OCC(=O)NN1C(=O)c2ccccc2C1=O	-0.9%	nt	-1.1	11	0%	-6	-1.2
O=C(Nc1nc(-c2ccc(-c3ccccc3)cc2)cs1)C1=COCCO1	4.3%	-7.8%	-0.4	1	16%	-13	0.9
COc1ccc(NC(=O)c2cnc(SCC(=O)Nc3nc4ccc(C)cc4s3)n(C)c2=O)cc1	?	-19%	nt	nt	nt	34	0.4
CCC(=O)N/N=C(\C)CC(=O)Nc1ccc(Cl)cc1	1.6%	nt	0.9	-1	-5%	1	-0.6
Cn1nnnc1SCc1csc(C2C(C#N)=C(N)OC3=C2C(=O)CCC3)c1 (centres undefined)	2.9%	nt	-3.1	-6	-4%	-2	-0.3
